Biofilm kill mix – clotrimazole potentiators killing C. albicans biofilm, primary screen, 4-compound mixtures | inhibition, % at 7.6 µM | AID 1242, 2008 | C. albicans biofilm persisters + clotrimazole, fluorescence viability; primary screen in compound mixtures of four per well | actives 0.02% (n = 120,000);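 active means inhibition above 30.3% in the primary screen of four-compound pools, then above 30% when the compound was retested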;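 further: compounds exposed to preformed 24 h biofilms for 48 h; the number belongs to the whole pool; some results filed as inactive read as strong as hits; inactives centre near 12; 0% = biofilm with clotrimazole alone and 100% = kill control; retested singly at about 60 µM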
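System: C. albicans CAF4-2 wild-type biofilms; Medium: RPMI/MOPS medium, pH 7.0; Reagent: Clotrimazole, 50 µg/mL; Times: biofilm formation 24 h, compound exposure 48 h, 37 °C; Detection: 2-h Alamar Blue fluorescence, 535/590 nm excitation/emission; Evaluation: percent inhibition of biofilm viability.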
Active calls of the source: *. An excerpt; the hit share may differ from the screen's.

SMILES	Biofilm kill mix
COc1cccc(NC(=O)c2ccc(Cn3cc([N+](=O)[O-])cn3)o2)c1	10
O=C(NCc1ccco1)C(=O)NCC1OCCCN1S(=O)(=O)c1ccccc1 (configuration not stated)	12
C/C(Cl)=C\Cn1c(O)c(N=O)c2ccccc21	23
Fc1ccc(-c2nc3ccccn3c2NCc2ccc3c(c2)OCO3)cc1	15
CSc1ccc(OC2CCCCC2NS(=O)(=O)c2ccccc2)cc1 (configuration not stated)	15
Cc1ccc(S(=O)(=O)N(CCC#N)C2CCCCC2)c2nsnc12	14
CNC(=S)N1CCN(C(=O)c2ccco2)CC1	9
CCc1ccc(OCC(=O)c2c(O)c3ccccc3oc2=O)cc1	17
O=[N+]([O-])c1ccccc1OCc1nc(-c2cccs2)no1	12
CC1(C)CC(=O)C(C=NCCN2CCN(C(=O)c3ccc(F)cc3)CC2)=C(O)C1	11
O=C(c1sccc1Cl)N1CCN(Cc2ccc3c(c2)OCO3)CC1	14
CCCn1nc(NC(=O)c2cccs2)c2cc3cccc(C)c3nc21	23
COc1ccc(-c2cc(=O)c3cc(OC)ccc3[nH]2)cc1	8
O=C(/C=C/c1ccc(Cl)c([N+](=O)[O-])c1)Nc1cccc(NC(=O)c2ccco2)c1	13
Cc1cc(C)n(-c2nc(NCCN(C)C)c3c4c(sc3n2)CCCC4)n1	26
Cc1ccc(CSc2nnc(SCC(=O)N/N=C/C=C/c3ccccc3[N+](=O)[O-])s2)cc1	8
Cc1ccc(-c2nnc(Nc3ccc4c(c3)OCO4)c3ccccc23)cc1S(=O)(=O)NCCO	12
CCCCC(=O)Oc1cc(C)[nH]c(=O)c1[N+](=O)[O-]	22
O=C(Nc1cccc([N+](=O)[O-])c1)Nc1ccc2c(c1)OCCO2	12
COc1cccc(C2CC(c3cccs3)=NN2C(=O)CSc2nc3ccccc3s2)c1OC (configuration not stated)	18
CCCCNC(=S)N/N=C/c1ccccc1F	9
COc1ccccc1CNC(=O)CSc1nc2ccccc2c(=O)n1CCCN1CCOCC1	-1
CC(=O)OCC1(C)CN(c2ccccc2)NC1=O (configuration not stated)	9
Cc1cc(N/N=C/c2ccc(F)cc2)nc(-n2nc(C)cc2C)n1	25
O=C(NC(=S)NCc1ccccc1)c1ccc2c(c1)OCO2	13
COCCNC(=O)C(=O)NCC1OCCN1S(=O)(=O)c1cccs1 (configuration not stated)	16
CSc1ccccc1NC(=O)Cc1ccc(Br)cc1	2
O=C(Nc1ccc(F)cc1)c1cccc(N2C(=O)C3C4CCC(C4)C3C2=O)c1 (configuration not stated)	14
CCCn1nnc(NC(=S)NC(=O)c2ccc(-c3ccc(Br)cc3)o2)n1	18
O=C(NCC1CCCO1)c1ccc(NS(=O)(=O)c2cccs2)cc1 (configuration not stated)	21
CC(C)CNC1CS(=O)(=O)CC1O (configuration not stated)	11
Cc1nc(C2COc3ccccc3O2)sc1C(=O)O (configuration not stated)	26
O=[N+]([O-])c1ccc(C[n+]2cccc3c4ccccc4ccc32)cc1	12
CCOC(=O)C(CC)Sc1nnc(COc2ccc(C)cc2)n1-c1ccccc1 (configuration not stated)	4
COc1ccc2c(c1OC)C(=O)OC2Nc1nc(-c2cc3ccccc3oc2=O)cs1 (configuration not stated)	13
COc1cccc(/C=N/NC(=O)Cn2ccnc2C)c1	20
COc1ccc(Cl)cc1NC(=O)C1COc2ccccc2O1 (configuration not stated)	14
COC(=O)c1cccc(NS(=O)(=O)c2ccc(OC)cc2)c1C	18
CCn1c(NCCO)nc2c(c1=O)C(C)(CC)Cc1ccccc1-2 (configuration not stated)	23
CCc1ccc2c(c1)C(=O)c1ccccc1C2=O	18
CCn1c2ccccc2c2cc(NC(=O)COc3ccccc3OC)ccc21	16
Cn1c(CCC(=O)OCC(=O)Nc2ccc(Oc3ccccc3)cc2)nc(=O)c2ccccc21	1
Clc1ccc2nnc(Cl)n2n1	7
Cc1ccc(NC(=O)C2CCN(S(=O)(=O)c3cnc[nH]3)CC2)cc1C	17
COCc1nnc(NC(=O)c2ccc(OC)cc2OC)s1	7
Cn1ncc(Br)c1C(=O)Nc1c(F)c(F)cc(F)c1F	16
O=S(=O)(c1ccc(Cl)nc1)N1CCN(c2ncccn2)CC1	15
Cc1ccc(NC(=O)COc2ccc(/C(N)=N/O)cc2)cc1C	7
Cc1nn(C(=O)c2ccc([N+](=O)[O-])cc2)c(C)c1Br	15
Cc1nc(N2CCOCC2)[nH]c(=O)c1C(O)C(Cl)(Cl)Cl (configuration not stated)	8

Additional compounds:
SMILES	Biofilm kill mix
CCOC(=O)c1nn(-c2ccc(OCC)cc2)c(C)c1C(C)=O	6
COCCNC(=O)C12CC3CC(CC(Cl)(C3)C1)C2	22
Cn1c(=O)c2ncn(CC(=O)Nc3nc(-c4ccc(Cl)cc4)cs3)c2n(C)c1=O	12
CC(C)NS(=O)(=O)c1ccc(OCC(=O)NC(C)c2ccccc2)cc1 (configuration not stated)	18
CCCSc1nc2c(=O)[nH][nH]c(=O)c2n1Cc1ccccc1	8
O=C1/C(=C/c2cccnc2)N=C2CCCCCN12	9
O=C(O)COc1c(Cl)cc(/C=C2/NC(=O)NC2=O)cc1Br	15
CCC(C)NC(=O)C(=O)NC1CCCC1 (configuration not stated)	11
CCOC(=O)C1CCN(C(=S)Nc2cccc(C)c2C)CC1	15
Cc1cc(Cl)ccc1OCCCC(=O)NCc1ccncc1	4
Cc1c(Cl)cccc1-n1c(-c2cccnc2)n[nH]c1=S	10
Cc1cc(N2C(=O)C3C4CC(c5ccccc5)C(C4)C3C2=O)no1 (configuration not stated)	16
Cc1nn(-c2ccccc2)cc1C(=S)Nc1ccccc1	8
CNc1ccccc1C(C)(C)c1cc(-c2cccc(OC)c2)no1	1
COc1ccc(OC)c(N/C(C)=C/C(=O)c2ccccc2)c1	7
C=CCN(CC=C)C(=S)NC(=O)/C=C/c1ccccc1	16
Cc1cccc(NC(=O)NC(=O)c2ccccc2)n1	3
O=[N+]([O-])c1ccc2[nH]c3c(c2c1)CCCC3O (configuration not stated)	13
CCOC(=O)C(C)Sc1nc2c(c(-c3cccs3)c1C#N)CCC2 (configuration not stated)	5
CC(=O)/C(=N/Nc1ccc(Br)cc1)N1CCCc2ccccc21	27
Nc1nc2ccc(C(=O)NCCOC(=O)C3CCCCC3)cc2s1	9
O=C(O)CCn1cc(C2CC(c3ccccc3)=NN2c2ccccc2)c(-c2ccccc2)n1 (configuration not stated)	12
CN(/N=C/c1ccc2c(c1)OCO2)c1nc(N2CCOCC2)nc(N2CCOCC2)n1	8
COc1cccc(C(C(=O)NC(C)(C)C)N(C(=O)CCC(=O)Nc2cc(C)on2)C(C)(C)C)c1OC (configuration not stated)	9
CN(C)C(=O)c1ccc2c(c1)C1C3CCC(C3)C1C(c1ccccc1)N2 (configuration not stated)	9

Part of the list above, with each value named:
canonical_smiles: O=C(O)COc1c(Cl)cc(/C=C2/NC(=O)NC2=O)cc1Br
- Biofilm kill mix: 15
canonical_smiles: CCC(C)NC(=O)C(=O)NC1CCCC1 (configuration not stated)
- Biofilm kill mix: 11

(list continues)
SMILES	Biofilm kill mix
O=C(CN(c1cccc(C(F)(F)F)c1)S(=O)(=O)c1ccc(Cl)c([N+](=O)[O-])c1)NCc1ccc(F)cc1	14
NC(=O)CC(NC(=O)c1ccc(Br)cc1)c1ccc(NCCc2ccc(F)cc2)c([N+](=O)[O-])c1 (configuration not stated)	12
O=C(c1ccc(-n2c(SCc3cc(F)ccc3F)nc3ccccc3c2=O)cc1)N1CCOCC1	14
Cc1onc(-c2c(Cl)cccc2Cl)c1NC(=O)NNc1ccccn1	22
CN(C)S(=O)(=O)Oc1ccc(C(=O)Nc2ccc([N+](=O)[O-])cc2)cc1	11
COCCNC(=O)CN(C(=O)c1ccc(N2CCCC2)nc1)c1ccccc1	7
CCCC(=O)c1ccc(N2CCCC2)c(F)c1	21
Cc1ccccc1CN1CCc2c(OCC(=O)N3CCCCC3)cccc2C1=O	-1
CC(=O)c1cccc(NC(=S)NC(=O)c2ccccc2C)c1	12
C=CCN(c1ccccc1C(=O)NCC(=O)O)S(=O)(=O)c1ccccc1C	20
CCNC(=O)NC(=O)C(C)OC(=O)C1CCN(S(=O)(=O)c2ccccc2C(=O)OC)CC1 (configuration not stated)	15
CC(C1CC1)N(C(=O)c1ccccc1[N+](=O)[O-])c1ccccc1 (configuration not stated)	1
CCc1ccccc1NC(=O)COc1ccc2c(=O)c(Oc3cc(C)ccc3C)coc2c1	15
O=C(Nc1cccc2c1N(C(=O)c1ccco1)CCC2)c1ccco1	22
CCc1ccc(C2=NN(CCC(=O)NC(C)c3ccc4c(c3)OCCO4)C(=O)CC2)cc1 (configuration not stated)	19
O=C(COC(=O)/C=C/c1cccc(Cl)c1)NCCC1=CCCCC1	10
O=C1C(NS(=O)(=O)c2cccs2)=C(N2CCOCC2)C(=O)c2ccccc21	20
O=Cc1ccc(-n2nncc2-c2ccc([N+](=O)[O-])cc2)cc1	29
Cc1ccc(NC(=O)/C=C/c2ccc(Cl)cc2)nc1	9
O=C(O)CC1=C(Nc2ccccc2)C(=O)N(c2ccccc2)C1c1ccc(Cl)cc1 (configuration not stated)	24
Cc1nnc(SCCN2CCOCC2)n1C	13
COC(=O)c1ccc(NC(=S)Nc2ccccn2)cc1	14
OCCC1CN(Cc2ccon2)CCN1Cc1ccc(F)c(F)c1 (configuration not stated)	18
CN1C(=O)c2ccc(NC(=S)NC(=O)C(C)(C)C)cc2C1=O	16
Cc1ccc(CN(Cc2ccco2)S(=O)(=O)c2ccc(S(=O)(=O)NCC3CCCO3)cc2)cc1 (configuration not stated)	16
Cc1ccc(Nc2nnc(SCC(=O)c3cc4ccccc4o3)s2)cc1C	16
CCC(=O)Nc1ccc(Nc2nc(C)c([N+](=O)[O-])c(Nc3ccc(NC(=O)CC)cc3)n2)cc1	9
Cc1cc(C)cc(OCC(=O)NNC(=O)CCN2C(=O)c3ccccc3C2=O)c1	13
CN(C(=O)COc1ccc(S(=O)(=O)N2CCOCC2)cc1[N+](=O)[O-])C1CCS(=O)(=O)C1 (configuration not stated)	30
O=C(O)c1ccc2c(c1Nc1ccccc1)C(=O)c1ccccc1C2=O	26
Cc1ccc(N(C(=O)CCC(=O)Nc2cc(C)on2)C(C(=O)NC2CCCC2)c2ccccc2)cc1 (configuration not stated)	30
CCOC(=O)C(c1ccccc1)C(Nc1ccccc1)c1ccccn1 (configuration not stated)	5
CCn1c(SCC(=O)N2CCCC2)nnc1-c1ccc(N)cc1	10
Cn1c(Cc2ccccc2)[n+](C)c2ccccc21	12
CC1CCCCN1C(=O)C1CCCCN1S(=O)(=O)c1cccc([N+](=O)[O-])c1 (configuration not stated)	3
COc1ccc(-n2nc3c(c2NC(=O)c2ccc(S(=O)(=O)N4CCOCC4)cc2)CS(=O)C3)cc1 (configuration not stated)	8
NC(=O)c1sc(=S)n2c1[nH]c(=O)c1sccc12	11
COC(=O)c1sccc1NC(=O)COc1cccc(C)c1	14
CC(/C=N/NC(=O)Cn1nccc1C)=C\c1ccc(C(C)C)cc1	7
O=C(NCC1CCCO1)C(c1ccc(F)cc1)N(C(=O)Cn1nnc(-c2ccc(F)cc2)n1)c1cccc(O)c1 (configuration not stated)	2
CCOc1ccccc1N1CCN(C(=O)c2c(-c3ccccc3Cl)noc2C)CC1	16
O=C(O)c1ccc(NS(=O)(=O)c2ccc3c(c2)C(=O)c2cc(S(=O)(=O)Nc4ccc(C(=O)O)cc4)ccc2-3)cc1	13
COc1ccc(OC)c(-n2c(-c3cccc(S(=O)(=O)N(C)C)c3)n[nH]c2=S)c1	14
Cc1ccc(S(=O)(=O)CCC(=O)OCc2ccc(Cl)c(Cl)c2)cc1	18
O=C(CSc1ccc2ccccc2c1)NCCc1ccc(O)c(O)c1	16
O=C(Cc1cccs1)N/N=C/C=C\c1ccccc1[N+](=O)[O-]	10
COc1cc(OC)cc(-n2nc(C(=O)N3CC(C)CC(C)C3)c3ccccc3c2=O)c1 (configuration not stated)	17
CC(C)n1nc(CC(=O)O)c2ccccc2c1=O	28
Cc1cc(C(=O)N/N=C/c2ccc3c(c2)OCO3)c(C)n1-c1ccc(F)cc1	17
NNc1nc2cccnc2n(CCNc2ncc(C(F)(F)F)cc2Cl)c1=O	5

A draw from above in order of length of the SMILES, lowest first.
SMILES	Biofilm kill mix
CC(C)n1nc(CC(=O)O)c2ccccc2c1=O	28
CCn1c(SCC(=O)N2CCCC2)nnc1-c1ccc(N)cc1	10
CC(/C=N/NC(=O)Cn1nccc1C)=C\c1ccc(C(C)C)cc1	7
CCOc1ccccc1N1CCN(C(=O)c2c(-c3ccccc3Cl)noc2C)CC1	16
Cc1cc(C)cc(OCC(=O)NNC(=O)CCN2C(=O)c3ccccc3C2=O)c1	13
Cc1ccc(N(C(=O)CCC(=O)Nc2cc(C)on2)C(C(=O)NC2CCCC2)c2ccccc2)cc1 (configuration not stated)	30

Later entries:
SMILES	Biofilm kill mix
CCOC(=O)C1CCN(CCC(=O)Nc2ccccc2)CC1	12
O=C(COC(=O)/C=C/c1ccccc1)NCc1ccccc1Cl	10
Cc1ccc(CNc2ccc3c(c2)ncn3C(C)C)cc1	25
Nc1nc2c([N+](=O)[O-])cccc2s1	13
NS(=O)(=O)c1ccc(NC(=S)NC(=O)c2cccs2)cc1	16

Source: PubChem BioAssay
